Screens deposited in PubChem BioAssay by National Center for Advancing Translational Sciences (NCATS).
hNpr1 antagonist – blocks ANP-stimulated signaling of human Npr1 receptor | P16066 | HEK293 hNpr1 GloSensor cGMP, ANP-stimulated luminescence | Potency, µM (series often up to 46.3 µM), without a hit: top-dose activity change, negative = inhibition, actives largely listed as inhibitors | actives 1.6% (n = 76,000); active = well fitted inhibition curve with a large enough effect; inconclusive = small, poorly fitted or top-dose-only effect; inactive = no such curve, though single readings can be large or run the other way;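 further: nearly all actives have a fitted effect of over 60% in size; nearly all hits also lower the signal before the agonist is added; a reference antagonist and vehicle were the controls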
Target sequence (P16066 whole entry, looked up): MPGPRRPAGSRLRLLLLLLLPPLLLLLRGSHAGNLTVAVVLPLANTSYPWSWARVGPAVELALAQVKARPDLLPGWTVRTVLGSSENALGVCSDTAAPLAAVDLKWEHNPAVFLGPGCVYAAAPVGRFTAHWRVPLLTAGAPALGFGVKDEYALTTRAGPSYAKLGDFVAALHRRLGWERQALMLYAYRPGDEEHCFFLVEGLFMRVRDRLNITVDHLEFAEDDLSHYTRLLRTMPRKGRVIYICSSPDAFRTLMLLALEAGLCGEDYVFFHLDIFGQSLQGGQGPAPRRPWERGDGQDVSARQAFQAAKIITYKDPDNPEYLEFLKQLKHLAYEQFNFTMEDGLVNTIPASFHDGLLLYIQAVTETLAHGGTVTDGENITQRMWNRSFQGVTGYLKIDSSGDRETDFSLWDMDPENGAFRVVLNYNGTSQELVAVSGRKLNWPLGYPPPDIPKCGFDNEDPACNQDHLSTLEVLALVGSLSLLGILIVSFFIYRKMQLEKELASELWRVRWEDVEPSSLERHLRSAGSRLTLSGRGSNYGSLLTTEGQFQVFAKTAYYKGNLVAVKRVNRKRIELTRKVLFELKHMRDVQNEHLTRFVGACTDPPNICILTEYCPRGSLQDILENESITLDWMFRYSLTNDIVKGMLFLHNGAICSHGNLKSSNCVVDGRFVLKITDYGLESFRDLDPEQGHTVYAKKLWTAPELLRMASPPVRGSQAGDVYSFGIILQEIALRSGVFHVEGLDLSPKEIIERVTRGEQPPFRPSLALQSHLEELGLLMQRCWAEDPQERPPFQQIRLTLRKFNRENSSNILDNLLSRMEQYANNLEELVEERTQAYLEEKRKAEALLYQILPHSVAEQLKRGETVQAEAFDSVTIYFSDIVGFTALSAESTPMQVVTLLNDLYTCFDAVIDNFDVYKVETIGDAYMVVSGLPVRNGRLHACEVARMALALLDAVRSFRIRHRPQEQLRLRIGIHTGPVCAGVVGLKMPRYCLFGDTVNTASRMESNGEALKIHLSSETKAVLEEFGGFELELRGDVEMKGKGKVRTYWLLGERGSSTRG
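HEK293 cells stably expressing human Npr1 and cGMP GloSensor pGS-40F, loaded 2 h with 2% GloSensor reagent, given compound 30 min at room temperature. Luminescence read before and 20 min after 0.1 nM hNppA.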
* marks the source's active call; other numbers are inactive results; ? = inconclusive; [ ] = dose if it differs, or a comment. On the % scale 0 is the no-effect control and ±100 the full control effect; potency means the concentration at half of the fitted maximal effect.

SMILES | hNpr1 antagonist
C[C@H]1[C@@H]2[C@@H](O)C([C@H](C)C(=O)NCc3cc(F)cc(F)c3)CC[C@@]2(C)CC[C@@H]1NC(=O)c1ccccn1 (stereo partly specified) | -3.2%
COCc1nc(C2CCCN(C(=O)C3CC3)C2)no1 (stereo unspecified) | 0.2%
O=c1[nH]ccn1C1CCN(Cc2ccc(OC(F)(F)F)cc2)CC1 | -1.5%[70.6 µM]
Clc1ccc(-c2cc3c(cn2)CN(Cc2ccncc2)CCN3)cc1 | ?
O=C(c1ccccc1)N1CCn2c(nn(-c3ccc(F)cc3F)c2=O)C1 | -9.5%
CN(C)Cc1nnc(C2CC(NC(=O)c3cc(-c4cccn4C)n[nH]3)C2)n1C (stereo unspecified) | 0.0%
O=C(NCc1cc2n(n1)CCCNC2)c1ccc(Cn2cnnn2)cc1 | -0.6%
CN1C(=O)c2cccn2CC1CNC(=O)CCc1nc(-c2ccccc2)no1 (stereo unspecified) | 1.5%
NC(=O)[C@H](CC1CCCCC1)NC(=O)[C@H]1CN(C(=O)C2CCNCC2)CCN1C(=O)N1CCOCC1 | -0.3%
COCCN1C(=O)CS(=O)(=O)C12CCN(C(=O)CCc1cccc(OC)c1)CC2 | -0.7%
CCCc1noc(-c2cn(C3CCN(C(=O)Cc4ccc(F)cc4)CC3)nn2)n1 | 0.0%
Cc1ccc(C(=O)N2CCC(Oc3ncccc3C(=O)N3CCCCC3)C2)cc1C (stereo unspecified) | 0.3%
COc1ccc2[nH]c(=O)c(CN3CCOC(CN)C3)cc2c1 (stereo unspecified) | 0.0%
COC1CCC12CCN(C(=O)c1ccc3cc[nH]c3c1)CC2 (stereo unspecified) | 0.2%
CCc1nc2c(=O)n(CC(=O)N3CCN(c4cccc(C)c4C)CC3)nc(C)c2s1 | -7.4%
Nc1nc(C2CC(NC(=O)Cc3csc(-c4ccccc4)n3)C2)cc(=O)[nH]1 (stereo unspecified) | -4.3%
COc1ccccc1-c1ccc2ncc(Nc3ccnc(N4CCOCC4)c3)n2n1 | -23.9%[70.6 µM]
Cc1ccc(OCC(=O)c2ccc3c(c2)N(CC(=O)NCCc2ccccc2)C(=O)CO3)cc1 | 3.4%
OCC1(CNCc2ccc(F)cc2)C[C@@H](O)[C@@H](O)C1 (stereo partly specified) | -1.3%[70.6 µM]
COCCNC(=O)C1CC(c2ccccc2)CN(C(=O)c2ccc(OC)c(OC)c2)C1 (stereo unspecified) | 2.1%
c1ccc(CN2Cc3[nH]cnc3C[C@H]2c2nc(-c3ccncc3)no2)cc1 | -5.8%[70.6 µM]
COC(=O)C1=C(C)N=C2SC=C(CC(=O)NCCc3cccs3)N2C1c1cccc(OC)c1 (stereo unspecified) | -19.8%
O=C(NC1CC(=O)N(Cc2cccc(F)c2)C1)c1ccccn1 (stereo unspecified) | 4.2%
CS(=O)(=O)N1CCOc2ccc(CCC(=O)NCC3CC3)cc2C1 | 0.4%
CS(=O)(=O)N1CCN(C(=O)CCC2CCN(c3cc(NC4CC4)ncn3)CC2)CC1 | ?

Exported as comma-separated lines: part of the list above.
molecule,hNpr1 antagonist
COCCNC(=O)C1CC(c2ccccc2)CN(C(=O)c2ccc(OC)c(OC)c2)C1 (stereo unspecified),2.1%
c1ccc(CN2Cc3[nH]cnc3C[C@H]2c2nc(-c3ccncc3)no2)cc1,-5.8%[70.6 µM]
COC(=O)C1=C(C)N=C2SC=C(CC(=O)NCCc3cccs3)N2C1c1cccc(OC)c1 (stereo unspecified),-19.8%

Next part
SMILES | hNpr1 antagonist
C[C@H]1CCCN1C(=O)c1nnc(COc2cccc(Cl)c2)n1-c1ccccc1 | -3.3%[70.6 µM]
O=C(c1ccc(Cn2ccnc2)o1)N1CCC2(CC1)NCCc1c2[nH]c2ccccc12 | 4.2%
CCc1cc(=O)n(CC(=O)Nc2cccc(SC)c2)c(N2CCOCC2)n1 | -18.9%
CC(C)=CCC1(CO)CCCN(Cc2csc(C)n2)C1 (stereo unspecified) | 1.6%
Cc1cc(NC(=O)Cc2c[nH]c3ncc(-c4ccccc4C)cc23)n(C)n1 | 15.8µM*
COC[C@H]1CCCN1C(=O)C[C@@H]1O[C@H](CNC(=O)c2ccccc2)[C@@H](O)[C@H]1O | 2.6%[70.6 µM]
CCN(Cc1ccncc1)C(=O)c1cc(-c2cnn(CC)c2)nc2cc(C)ccc12 | -11.4%
O=C(c1cccc(OC(F)(F)F)c1)N1CCC(c2n[nH]c(=O)n2-c2ccccc2)CC1 | 6.3%
O=C(c1cc2ccccc2[nH]1)N1C[C@@H](CO)[C@H](c2nc(C3CC3)no2)C1 | -11.6%
O=C(O)Cn1nc2c(cc1=O)CCCC2 | 1.2%
COc1cccc(CN2CC[C@H](c3n[nH]c(C)n3)[C@H](NC(=O)C3CC3)C2)c1 | 3.2%
COCC(=O)N1CCc2cn(C)c3cccc(c23)C1 | -19.1%
O=C(Cc1ccc(F)cc1)N1CCn2c(nnc2-c2ccccc2)C1 | -0.4%[70.6 µM]
Cn1nccc1C(=O)N1CCC(N2CC3CC(C2)[C@H]2CCCC(=O)N2C3)CC1 (stereo partly specified) | 1.2%
COc1ccc(C(=O)NC2CCCN(c3cc(-c4ccc(F)cc4)[nH]n3)C2)c(C)c1 (stereo unspecified) | ?
Cc1noc(C)c1C(=O)N1CC(c2noc(C3CCCN3CC3CC3)n2)C1 (stereo unspecified) | -1.6%
COCCOC1CCOC2(CCN(C(=O)Cc3c[nH]c4ccccc34)CC2)C1 (stereo unspecified) | -20.9%
CCNc1ncc(C(=O)N2CCN(CCCCOC)CC2)cn1 | 2.3%
O=C(c1cccs1)N1CCCC(n2cc(-c3nc(-c4ccccc4)no3)nn2)C1 (stereo unspecified) | ?
O=C(Cn1cccc1-c1nc(-c2ccc3c(c2)OCO3)no1)NCc1ccc(Cl)cc1 | 5.2%
COc1ccc(C(=O)N2CCCn3cncc3C2)c(OC)c1OC | 4.3%
Cn1nccc1C(=O)N1CCCCCNC(=O)[C@@H]2CCC[C@@H]21 | 3.7%
Cc1ccsc1-c1[nH]nc2ncc(-c3cccnc3)nc12 | -17.0%[70.6 µM]
Cc1ccc(-c2noc([C@@H]3CCCN3C(=O)c3cc(F)ccc3Cl)n2)cc1 | -19.9%
O=C(CC1CCCN(c2cn[nH]c(=O)c2)C1)N1CCN(c2ccccc2)CC1 (stereo unspecified) | 2.4%

Brought forward from above: 6 compounds, then new ones.
SMILES | hNpr1 antagonist
O=C(Cn1cccc1-c1nc(-c2ccc3c(c2)OCO3)no1)NCc1ccc(Cl)cc1 | 5.2%
COc1ccc(C(=O)N2CCCn3cncc3C2)c(OC)c1OC | 4.3%
Cn1nccc1C(=O)N1CCCCCNC(=O)[C@@H]2CCC[C@@H]21 | 3.7%
Cc1ccsc1-c1[nH]nc2ncc(-c3cccnc3)nc12 | -17.0%[70.6 µM]
Cc1ccc(-c2noc([C@@H]3CCCN3C(=O)c3cc(F)ccc3Cl)n2)cc1 | -19.9%
O=C(CC1CCCN(c2cn[nH]c(=O)c2)C1)N1CCN(c2ccccc2)CC1 (stereo unspecified) | 2.4%
COc1ccc(CCC(=O)N2CCC(c3n[nH]c(=O)n3-c3ccc(C)cc3)CC2)cc1 | 0.0%
CC1(c2ccccc2)CCCN(Cc2nnc(-c3cccnc3)o2)C1 (stereo unspecified) | 0.3%
CCCN1C(CC(C)C)=NS(=O)(=O)c2cc(NC(=O)c3cccs3)ccc21 | -0.3%
CC[C@H]1CN(C(=O)Nc2cccc(C(F)(F)F)c2)CC[C@H]1CC(=O)N(CC)C(=O)NCCCN(C)C | -0.8%
O=C(C1CC1)N1CC(F)(F)C[C@H]1c1nc(-c2ncccn2)no1 | -1.7%
COc1cncc(-c2cccc(COc3ccc4c(cnn4CC[S+](C)(=O)[O-])c3)c2)c1 | ?
CNC(=O)[C@@H]1C[C@H](n2cc(CNC(=O)Nc3ccc(F)cc3F)nn2)CN1 | -0.7%
CNC(=O)[C@@H]1CN(Cc2c(F)cccc2Cl)C[C@H]1CO | 2.6%
CC(C)NC(=O)N(C1CC1)C1CCOC2(CCN(C(=O)NC3CCCCC3)CC2)C1 (stereo unspecified) | -6.0%
CCCN(CC1CCOC1)S(=O)(=O)c1ccccc1C (stereo unspecified) | 1.7%
CN1C(=O)CC(C(=O)O)C12CCN(C(=O)c1ccc3c(c1)CCC3)CC2 (stereo unspecified) | 10.0%
CCn1nccc1C(=O)N1CCCC(C(=O)NCc2ccccc2)CCNC(=O)CC1 (stereo unspecified) | 4.1%
COc1cccc(CNC(=O)Cn2ccn3nc4c(c3c2=O)CCCC4)c1OC | 3.6%
COc1ccc(-c2cnc([C@@H]3COCCN3C3CCN(C(C)=O)CC3)[nH]2)cc1 | 0.7%[70.6 µM]
CCn1ncc(N2CCC(NC(=O)C(C)C)CC2)cc1=O | -1.9%
NC(=O)c1cccc(-c2n[nH]c3c2CC(=O)N(Cc2ccccc2)C3)c1 | -1.1%[70.6 µM]
COc1cc(NC(=O)CC2=C3CCCCC3NC2=O)cc(OC)c1 (stereo unspecified) | 3.6%
CC1(C(=O)NCCCN2CCCC2=O)CCCCC(=O)N1 (stereo unspecified) | 6.2%
O=C(CC1CCOCC1)NCc1ccc(N2CCOCC2)cc1 | 9.6%
O=C1N(CC2CC2)CCOC12CCN([S+](=O)([O-])c1ccccc1)CC2 | -2.5%[70.6 µM]
O=C1CC(c2ccccc2)N(C(=O)C2CC2)CCCN(C(=O)Nc2ccccc2)CCN1 (stereo unspecified) | -1.2%
Cc1ccc(-c2nnc([C@H]3CCN(C(=O)NC4CCCCC4)C3)o2)cc1 | -7.6%[70.6 µM]
CO[C@H]1C(=O)N(C(C)C)[C@H]1C1CCN(C(=O)CCc2nc3ccccc3s2)CC1 | 4.4%
O=C(c1nnc(COc2ccc3cnccc3c2)n1-c1ccccc1)N1CCC[C@@H]1c1cccc(F)c1 | -4.0%
COc1ccc(CN2C=C(C(=O)OCc3nc(-c4ccccc4F)no3)C(C)=NS2(=O)=O)cc1 | ?

The list goes on; the last three above are carried over.
SMILES | hNpr1 antagonist
CO[C@H]1C(=O)N(C(C)C)[C@H]1C1CCN(C(=O)CCc2nc3ccccc3s2)CC1 | 4.4%
O=C(c1nnc(COc2ccc3cnccc3c2)n1-c1ccccc1)N1CCC[C@@H]1c1cccc(F)c1 | -4.0%
COc1ccc(CN2C=C(C(=O)OCc3nc(-c4ccccc4F)no3)C(C)=NS2(=O)=O)cc1 | ?
O=C(NC[C@H]1OC[C@@H](NCc2ccccn2)[C@@H]1O)N1CCOCC1 | 0.1%[70.6 µM]
Cc1ccccc1-c1nccc2c(=O)cc(N3CCOCC3)oc12 | 3.6%[70.6 µM]
COc1ccc(CC(=O)NCc2cccc(SC)c2)cc1 | -0.4%
O=C(c1ccc(F)cc1)N1Cc2[nH]cnc2C[C@H]1c1nc(-c2ccc3c(c2)OCO3)no1 | -18.5%[70.6 µM]
Cc1cc(C(=O)N[C@@H]2CN(Cc3cccnc3)C[C@H]2CN(C)C)n(C)n1 | 0.4%
O=C1[C@H]2CN(Cc3cc(F)cc(F)c3)C[C@H]2C(=O)N1CCc1ccccc1 | -1.1%
COCCn1c(COc2ccc3c(c2)ncn3C)nnc1C1CC(N)C1 (stereo unspecified) | 0.0%
CCc1nncn1C1CCN(C(=O)c2ccc(C)c(C)c2)CC1 | -8.0%
CCCCc1ncc(CN2CCN(C3CCCC3)C(CCO)C2)[nH]1 (stereo unspecified) | 0.9%
O=C(Cc1c[nH]c2ncc(-c3cccnc3)cc12)NC1CC1 | 1.0%[70.6 µM]
CN1CCOc2c(C(=O)NCCc3cnc[nH]3)cc(-c3ccccc3F)cc21 | 2.4%[70.6 µM]
CC1(C)[C@H]2CC[C@@H](CNC(=O)c3ccc(C(F)(F)F)cc3)[C@@H]1C2 | ?
O=C1Cc2c(-c3ccccc3Cl)n[nH]c2CN1Cc1ccccn1 | 3.7%[70.6 µM]
CCSCCNC(=O)c1c(C)noc1-c1cccc(F)c1 | 6.0%
Cn1ccnc1C(O)c1cc2n(n1)CCN(Cc1ccc(CO)o1)C2 (stereo unspecified) | -1.3%
OCC1CN(c2ccncn2)CC12CCN(Cc1cc(F)c(F)c(F)c1)CC2 (stereo unspecified) | ?
O=C(CC1CCCN(c2cnn(CC3CC3)c(=O)c2)C1)NCCc1ccncc1 (stereo unspecified) | 4.4%
Cn1ccnc1C(=O)N1CCCN(C(=O)C2CC2)c2ccccc21 | -1.5%
CN1CCCN(C(=O)c2ccsc2)c2ccccc21 | -13.7%
COc1cc(CCC(=O)N[C@H](C2CCNCC2)C2CC(O)C2)ccc1C (stereo partly specified) | 1.5%
CN1CC(=O)N(c2ccccc2)Cc2c(NCCCc3ccccc3)ncnc21 | -9.7%
CCc1ccc(C(=O)N2C[C@@H](F)C[C@H]2C(=O)N2CCCCC2)cc1 | 0.2%
Cc1nn(C)cc1CN1C[C@@H](COCC2CC2)[C@H](c2ccccn2)C1 | -17.0%
COCCC(=O)N1CCCCC1c1noc(COc2ccc(C)cc2)n1 (stereo unspecified) | 2.2%
O=c1[nH]c(N2CCOCC2)nc2c1CCN(Cc1cc(Cl)ccc1F)CC2 | 1.7%
CCC(CC)NC(=O)CCc1nc(C2CCCN2C(=O)NC(C)C)no1 (stereo unspecified) | -0.2%
CNC(=O)[C@H]1C[C@H](Oc2cccnc2)CN1S(=O)(=O)Cc1ccccc1F | -7.8%
O=C(NC1CC1)C1CN(c2ccc(F)cc2)C(=O)N1 (stereo unspecified) | -9.5%[70.6 µM]
O=C(c1c(F)cccc1F)N1CCC2(CC1)N=C(c1ccc(Cl)cc1)NO2 | ?
COc1cccc([S+](=O)([O-])N2CCC3(C2)N=C(c2cccnc2)C(=O)N3)c1 (stereo unspecified) | -3.6%

With a hit mark in hNpr1 antagonist, of those listed so far:
SMILES | hNpr1 antagonist
Cc1cc(NC(=O)Cc2c[nH]c3ncc(-c4ccccc4C)cc23)n(C)n1 | 15.8µM*

Some of the compounds tested; the hit share may differ from the screen's.
